Bioassay records as filed in PubChem.
LASV entry inh: blocks Lassa virus binding to or entry into cells; hit rate 1.2% among 300,000; Lassa virus pseudotype entry inhibition, cell reporter; control for the full effect not named in the record; Potency, µM (series often up to 37.9 µM), without a hit: top-dose activity change, negative = inhibition, actives largely listed as inhibitors; AID 540256; active means well fitted inhibition curve with a large enough effect; inconclusive means small, poorly fitted or top-dose-only effect, or effect the other way; inactive means flat fitted curve, though single readings scatter; tested in HEK293 cells; further: on the % scale 0 is the no-effect control and ±100 the full control effect; nearly all actives have a fitted effect of over 50% in size; luciferase read-out
MARV entry inh: inhibitors of Marburg virus binding or cell entry; Marburg virus pseudotyped entry inhibition, cell reporter; control for the full effect not named in the record; about a third of the inactives were read at about 46 µM; Potency, µM (top dose mostly 37.8 µM), without a hit: at the highest dose activity change, negative = inhibition, usual class: inhibitors; hit rate 1.8% among 300,000; active = well fitted inhibition curve with a large enough effect; inconclusive = small, poorly fitted or top-dose-only effect, or effect the other way; inactive = flat fitted curve, though single readings scatter; tested in HEK293 cells; about a fifth of its hits are not listed in these tables; further: on the % scale 0 is the no-effect control and ±100 the full control effect; luciferase read-out
NS1 function inh: inhibitors of influenza NS1 protein function | S. cerevisiae slowed by influenza A NS1, growth recovery by OD600 | Potency, µM (highest dose often 46.1 µM), for inactives: top-dose activity, positive = more growth | hit rate 0.4% among 270,000 | AID 2326; active means well fitted rising curve with a large enough effect; inconclusive means small, poorly fitted or top-dose-only effect; inactive means no such curve, though single readings can be large or run the other way; further: nearly all actives have a fitted effect of over 50% in size
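Compounds were scored for reversing the slow growth caused by influenza A NS1 in S. cerevisiae, measured by optical density at 600 nm. Assay medium contained 2% galactose at pH 6.0; NS1-free yeast of the same strain were the positive control.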
SARS PLP yeast: SARS-CoV PLP inhibition in yeast; S. cerevisiae expressing SARS-CoV PLpro, growth rescue; control for the full effect not named in the record; Potency, µM (top dose mostly 32.9 µM), inactives show top-dose activity, positive = growth rescue; hit rate 0.19% among 330,000; AID 485353; active means well fitted rising curve with a large enough effect; inconclusive means small, poorly fitted or top-dose-only effect; inactive means no such curve, though single readings can be large or run the other way; further: 0% is about no effect; nearly all actives have a fitted effect of over 55% in size; growth read by luminescence after 48 h
Cruzain Triton: inhibitors of Trypanosoma cruzi cruzain with detergent; P25779; purified cruzain, Z-FR-AMC fluorescence, 0.01% Triton; Potency, µM, without a hit: max response, negative = inhibition, most hits filed as inhibitors; hit rate 0.43% among 200,000; AID 1478;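 further: plate controls were neutral wells for no effect and buffer without enzyme for full effect; nearly all actives have a fitted effect of over 40% in size; top concentration of the series not given in the record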
Target sequence (P25779 123-467 limits assumed): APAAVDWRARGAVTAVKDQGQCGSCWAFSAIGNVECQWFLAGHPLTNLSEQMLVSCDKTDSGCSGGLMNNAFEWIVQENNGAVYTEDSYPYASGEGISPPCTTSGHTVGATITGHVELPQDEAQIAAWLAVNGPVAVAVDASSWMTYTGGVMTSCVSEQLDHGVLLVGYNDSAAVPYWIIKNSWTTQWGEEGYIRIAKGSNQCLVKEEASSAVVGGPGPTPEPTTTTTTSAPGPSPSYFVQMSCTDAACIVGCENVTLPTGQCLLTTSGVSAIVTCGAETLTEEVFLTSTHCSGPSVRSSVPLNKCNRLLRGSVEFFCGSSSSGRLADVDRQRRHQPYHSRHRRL
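15 min RT preincubation of 1.5 nM cruzain with compound, then 2 uM Z-FR-AMC added; kinetic AMC fluorescence, 60 s delta. Triton X-100 0.01%, pH 5.5.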
StopGo reporter: FMDV 2A StopGo reporter, luciferase signal; human cells with a luciferase reporter of 2A StopGo recoding; control for the full effect not named in the record; Potency, µM (top dose mostly 57.9 µM), for inactives: at the top dose signal change, negative = less light; hit rate 1.2% among 410,000; active = well fitted falling curve with a large enough effect; inconclusive = small, poorly fitted or top-dose-only effect; inactive = no such curve, though single readings can be large or run the other way; tested in HEK293T cells; further: on the % scale 0 is the no-effect control and ±100 the full control effect; nearly all actives have a fitted effect of over 45% in size; luciferase light after 4 h
RE007 growth inh: less growth of the S. pombe RE007 Vpr strain. S. pombe RE007 Vpr strain, BacTiter-Glo ATP luminescence, 24 h; control for the full effect not named in the record. Potency, µM (highest dose often 92.2 µM), inactives show at the highest dose activity change, negative = less growth. hit rate 0.21% among 360,000; active = well fitted falling curve with a large enough effect; inconclusive = small, poorly fitted or top-dose-only effect; inactive = no such curve, though single readings can be large or run the other way;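 further: on the % scale 0 is the no-effect control and ±100 the full control effect; nearly all actives have a fitted effect of over 50% in size; the assay follows cell death caused by Vpr and the record does not say whether a fall means rescue or toxicity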
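Fission yeast strain RE007, carrying one chromosomally integrated HIV-1 vpr copy, was seeded at OD 0.01 in PMG+AL medium with 23 nL pinned compound. After 24 h at 30 °C and 99% humidity, viability was read by BacTiter-Glo luminescence.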
Cruzain inh noDet: inhibitors of Trypanosoma cruzi cruzain without detergent; AID 1476; P25779; Potency, µM, for inactives: max response, negative = inhibition, hits mostly inhibitors; purified cruzain, Z-FR-AMC fluorescence, no detergent; hit rate 2.3% among 200,000;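 further: plate controls were enzyme without inhibitor for no effect and buffer without enzyme for full effect; nearly all actives have a fitted effect of over 40% in size; top concentration of the series not given in the record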
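Purified cruzain at 1.5 nM, pre-incubated 15 min with compound at room temperature in 100 mM sodium acetate pH 5.5, 5 mM DTT, 0.00005% Triton X-100. Reaction started with 2 uM Z-FR-AMC; AMC fluorescence increase over 60 s gives rate.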
Starred values were filed as active, the others as inactive; ? = inconclusive; / = no result given; & = joins results of further samples; [ ] = remark or other dose. Unless noted, the call rests on the fitted dose curve; in most records, active means well fitted curve in the direction sought with a large enough effect; inconclusive means small, poorly fitted or top-dose-only effect, or another doubt; inactive means no such curve, though single readings can be large; an effect the other way counts as inactive or inconclusive. Potency means the concentration at half of the fitted maximal effect.

SMILES	LASV entry inh	MARV entry inh	NS1 function inh	SARS PLP yeast	Cruzain Triton	StopGo reporter	RE007 growth inh	Cruzain inh noDet
O=C1CC(c2ccccc2)Sc2nc(-c3ccccc3)c(-c3ccccc3)n21 (stereo not given)	13.9%	15.5%	-2.8%	-3.3%	-6.3%	-19.2%	11.7%	?
Cc1c(CCO)c(=O)n(C)n1C(=O)c1ccc(F)cc1	-11.3%	?	-4.0%	-5.2%	-0.4%	7.5%	-6.8%	-4.9%
CCOC(=O)CC(=O)CSc1nc2c(sc(=S)n2-c2ccc(OCC)cc2)c(=O)[nH]1	?	?	15.6%	-8.4%	-14.8%	-27.0%	-1.1%	?
CCCC(=O)Nc1sc2c(c1C#N)CCCC2	0.7%	3.3%[46.1 µM]	-4.9%	-11.6%	-8.3%	20.1%	?	1.8%
O=c1c2cc(-c3ccccc3)sc2ncn1-n1cccc1	8.5%	?	1.7%	1.8%	4.7%	45.3%[activator]	1.6%	?
Cc1cccc(NC(=O)c2ccc(S(=O)(=O)N3CCN(C)CC3)cc2)c1C	-1.2%	1.6%[46.1 µM]	12.5%	2.1%	/	6.8%	-7.5%	/
COc1ccc(Cn2c(CCC(=O)Nc3ccc(C)c(C)c3)nc3cccnc32)cc1	?	?	11.7%	1.1%	1.6%&-0.9%	-13.7%&-19.1%	17.5%	?
Cc1ccc(S(=O)(=O)N(Cc2ccccc2)c2ccccc2C(=O)NCc2ccco2)cc1	?	?	-45.1%	-21.4%	-2.4%	/	15.0%	7.0%
CCCCCC1CC(CC(=O)NC(=S)Nc2ccc([N+](=O)[O-])cc2)C(=O)O1 (stereo not given)	-0.8%	28.3%	25.6%	-0.7%	-10.9%	11.4%	5.9%	-9.0%
NC(=O)C1CCN(c2cc(Cl)ccc2[N+](=O)[O-])CC1	/	2.7%	11.6%	1.3%	/	6.2%	21.6%	/
Cc1snc(S(=O)(=O)/C(C#N)=N\Nc2ccccc2)c1C#N	10.5%	8.0%	5.5%	/	?	33.1%[activator]	0.9%	-20.5%
CC(C)n1c(CNC(=O)c2ccccc2)nc2ccccc21	-14.6%	-11.2%	2.0%	1.7%	2.0%	-25.3%	-15.4%	-19.3%
COc1ccc(Cc2noc(CN3CCCN(C4Cc5ccccc5C4)CC3)n2)cc1OC	-3.4%[46.1 µM]	?	5.6%	1.6%	/	-20.1%	-8.4%	/
O=C(Nc1ccccc1)C1CCN(C(=O)c2ccc([N+](=O)[O-])cc2)CC1	-0.2%	?	3.6%	0.3%	/	-10.3%	-2.8%	/
CCOc1ccc(S(=O)(=O)n2cc(-c3ccccc3)c(N)n2)cc1	-11.8%	6.3%	9.1%	-6.9%	-2.5%	3.5%	-2.8%	-10.8%
O=C(CCl)N1N=C(c2cccs2)CC1c1ccco1 (stereo not given)	?	?	-1.7%	-1.3%	/	15.8µM*	25.9%	/
COc1ccc2c3c([nH]c2c1)C(C)NCC3 (stereo not given)	/	/	2.0%	-1.3%	/	-22.6%	-5.1%	/
COC(=O)c1c(NC(=O)COC(=O)CCS(=O)(=O)c2ccc(C)cc2)sc(C)c1C	13.2%	6.1%	-0.9%	8.3%	-7.0%	-13.0%	-7.1%	9.4%
Cc1c(Cl)cccc1-c1ccc(CNCCSc2nnnn2-c2ccccc2)o1	5.3%[46.1 µM]	-2.2%[46.1 µM]	/	/	12.6µM*	?	/	7.94µM*
CC1=NN(c2ccccc2)C(=O)/C1=C/c1cc(C)n(C2CC2)c1C	3.9%	29.9%[46.1 µM]	-2.0%	0.3%	/	27.6%	-18.5%	/
Cc1ccc2c(c1)c1c(n2CC(O)CNC(C)(C)C)CCCC1 (stereo not given)	/	/	2.2%	-2.5%	1.7%	?	1.1%	-0.4%
Cc1ccc(S(=O)(=O)Nc2cccc(CP(=O)(c3ccccc3)c3ccccc3)c2)cc1	?	?	-6.7%	0.4%	/	8.7%	17.1%	/
COc1ccc(F)cc1S(=O)(=O)Nc1cc2c3c(c1)CC(=O)N3CCC2	2.8%	7.4%	/	-0.5%	/	12.2%	5.6%	/
CCc1ccccc1N1CC(c2nc3ccccc3n2CCC2CCCCC2)CC1=O (stereo not given)	?	?	/	/	-14.7%	?	/	20.7%
CCCc1cc(=O)[nH]c(SCC(=O)Nc2ccc(OC(F)F)cc2)n1	?	11.5%	2.2%	0.0%	4.2%	8.9%	1.0%	-24.0%
CCOC(=O)C(=O)Nc1ccc(OCc2ccccc2)cc1	18.9%	9.9%	-5.6%	-2.2%	/	-13.8%	8.2%	/
O=C(CSc1nncs1)N1CCN(S(=O)(=O)c2ccccc2)CC1	23.7%	26.1%	6.2%	1.4%	/	-10.1%	6.1%	/
CCSc1cc(C)nc2c(-c3ccc(Cl)cc3)c(C)nn12	5.9%	-2.3%	-2.4%	-1.7%	-2.0%	-6.1%	8.5%	5.7%
NC(=O)C1CCN(C(=O)CCSc2ccccc2)CC1	22.4%	25.8%[46.1 µM]	8.4%	4.4%	1.2%	7.6%	-9.7%	13.2%
CCCCN(Cc1ccccc1)C(=O)CN(C)S(=O)(=O)c1ccc2c(c1)c(=O)n(C)c(=O)n2C	?	-6.8%[46.1 µM]	/	/	5.0%	-17.7%	/	0.6%
CCN(CC)c1ccc(NC(=O)c2cccc(C)c2OC)c(C)c1	6.6%	-27.6%	-8.7%	-5.4%	4.0%	36.2%[activator]	-12.9%	-1.4%
Cc1[nH]c2ccccc2c1C(C#N)(C#N)C1C(=O)c2ccccc2C1=O	/	/	5.6%	-3.2%	/	-17.6%	-19.2%	/
CN(C)S(=O)(=O)c1cccc(NC(=O)c2cc(=O)[nH]c(=O)[nH]2)c1	/	/	0.1%	-1.2%	/	-18.5%	-0.1%	/
O=C(OCCNc1nc(-c2ccccc2)nc2ccccc12)c1cccnc1	/	/	-39.4%	-4.0%	/	-22.4%	-18.7%	/
O=C(NCCSc1ccccc1)c1ccccc1	?	?	-50.0%	-7.2%	3.9%	8.6%	-22.7%	-0.6%
COc1ccccc1OCC(=O)NC1CCCCCC1	15.6%	13.2%	-45.1%	2.7%	3.8%	/	13.5%	7.2%
O=S(=O)(c1ccc2ncn(O)c2c1)N1CCOCC1	0.5%[46.1 µM]	8.9%[46.1 µM]	/	0.6%	/	-13.3%	1.0%	/
Cc1nc(NC(=O)c2ccc(Cl)cc2)sc1Cc1ccc2c(c1)OCO2	-17.0%[46.1 µM]	?	9.4%	17.9%	-2.3%	-12.2%	-13.4%	?
CN(C(=O)COC(=O)c1cccc(S(=O)(=O)N2CCCCC2)c1)C1CCS(=O)(=O)C1 (stereo not given)	12.3%	-17.5%[46.1 µM]	/	/	/	-11.1%	1.4%	/
CN1CCN(C(=O)CSc2nc3c(c(=O)n(C)c(=O)n3C)n2C)CC1	3.6%[46.1 µM]	4.1%[46.1 µM]	16.3%	1.0%	/	-9.8%	-16.7%	/
O=C(CSCC(=O)NN=Cc1ccccc1O)NN=Cc1ccccc1O	?	?	/	/	/	55.5%[activator]	-14.8%	/
CC(C)CCNC(=O)C1CCC(CNc2c(N3CCCC3)c(=O)c2=O)CC1 (stereo not given)	-6.2%	2.3%	-6.1%	3.0%	/	3.0%	-0.4%	/
O=C(COc1ccccc1[N+](=O)[O-])Nc1ccc(N2CCN(C(=O)c3cccs3)CC2)cc1	?	?	4.8%	0.7%	/	12.6µM*	12.3%	/
Cc1c(NS(=O)(=O)c2cc(C(=O)NCc3cccnc3)cc(Cl)c2Cl)c(=O)n(-c2ccccc2)n1C	-12.2%	8.8%	/	-4.2%	/	-1.6%	-11.7%	/
CCC(=O)Nc1ccc(/C(C)=N/NC(=O)c2c(Br)c(C)nn2C)cc1	?	-14.2%	3.7%	4.4%	-6.3%	-16.3%	-3.1%	5.0%
CCOC(=O)C(Cc1c[nH]c2ccccc12)NC(=O)COc1ccc(Cl)cc1 (stereo not given)	17.8%[46.1 µM]	/	/	/	-7.7%	0.0%	/	10.7%
Cc1ccc(C(=O)NCC(=O)OCCOc2cccc(Cl)c2)cc1	4.2%	19.6%[46.1 µM]	/	3.9%	/	2.8%	20.2%	/
COc1ccccc1N1CCN(C(=O)c2ccc(CN3CCc4ccccc4C3)cc2)CC1	2.4%	?	6.3%	-0.2%	1.2%	?	10.2%	-5.1%
CCOc1ccc(OCCCC(=O)Nc2nc3ccccc3[nH]2)cc1	/	-7.5%[46.1 µM]	/	-0.5%	/	8.0%	-13.1%	/
CCOc1ccccc1-n1c(O)c(C=Nc2ccc(N(CC)CC)cc2)c(=O)[nH]c1=O	?	-25.3%	10.7%	2.8%	-8.9%	-31.7%	-13.8%	-7.6%
O=C(O)C1CCC(CNCc2ccccc2Cl)CC1 (stereo not given)	7.8%	-0.8%	3.9%	21.5%	-0.4%	-8.7%	-5.1%	11.1%
O=C(CSc1nc2ccsc2c(=O)n1Cc1ccccc1Cl)NCc1ccc(Cl)cc1	0.9%[46.1 µM]	/	/	/	-3.1%	15.0%	/	-4.9%
Cc1cc(=O)n(C(C)(C)C)c(=O)n1Cc1ccccc1	/	/	1.1%	-0.5%	/	-19.5%	10.9%	/
COc1cc(C(=O)Nc2sc3c(c2C(=O)O)CCC(C)C3)cc(OC)c1OC (stereo not given)	?	?	0.9%	1.5%	/	-19.9%	-1.2%	/
Cc1nn(-c2ccccc2)nc1C(=O)NN	/	/	-2.9%	-0.4%	/	?	?	/
O=C(CN1CCN(c2ccccn2)CC1)Nc1cccc(Cl)c1Cl	7.08µM*	-31.3%	-35.9%	-2.6%	/	-18.3%	?	/
CCN=C1SC(CC(=O)Nc2ccc(N3CCOCC3)cc2)C(=O)N1CC (stereo not given)	?	-1.2%	-7.9%	-6.2%	3.6%	-17.4%	-17.5%	-6.4%
CCOC(=O)c1ccc(-n2c(C)nc3ccccc3c2=O)cc1	-7.8%	-10.3%	-17.3%	-6.3%	-6.9%	-25.9%	-0.6%	-0.2%
O=C(COC(=O)CNC(=O)c1ccccc1Cl)Nc1ncc(C(F)(F)F)cc1Cl	4.7%	?	-0.3%	11.9%	1.58µM*	-10.8%	28.2%	1.26µM*
